# LASV entry inh = Lassa virus entry inhibition | Lassa virus pseudotype entry inhibition, cell reporter; control for the full effect not named in the record | Potency, µM (highest dose often 37.9 µM), for inactives: top-dose activity change, negative = inhibition, hits mostly inhibitors | 300,000 compounds, 1.2% hits; active means well fitted inhibition curve with a large enough effect; inconclusive means small, poorly fitted or top-dose-only effect, or effect the other way; inactive means flat fitted curve, though single readings scatter; tested in HEK293 cells; further: on the % scale 0 is the no-effect control and ±100 the full control effect; nearly all actives have a fitted effect of over 50% in size; luciferase read-out
# NS1 inh = influenza NS1 inhibition; S. cerevisiae slowed by influenza A NS1, growth recovery by OD600; Potency, µM (doses to about 46.1 µM), without a hit: top-dose activity, positive = more growth; 270,000 compounds, 0.4% hits; AID 2326; further: actives are rising curves; nearly all actives have a fitted effect of over 50% in size
#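 A cell-based growth assay was used: compounds that relieve NS1-induced slow growth of budding yeast raise OD600. Assay medium was yeast nitrogen base with ammonium sulphate and -URA supplement, pH 6.0, with 2% galactose.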
# 2A StopGo = lowers the luciferase signal of an FMDV 2A StopGo reporter; human cells with a luciferase reporter of 2A StopGo recoding; control for the full effect not named in the record; Potency, µM (titrated, usually from 57.9 µM), without a hit: at the highest dose signal change, negative = less light; 410,000 compounds, 1.2% hits; active = well fitted falling curve with a large enough effect; inconclusive = small, poorly fitted or top-dose-only effect; inactive = no such curve, though single readings can be large or run the other way; tested in HEK293T cells; further: on the % scale 0 is the no-effect control and ±100 the full control effect; nearly all actives have a fitted effect of over 45% in size; luciferase light after 4 h
# SARS PLP yeast = SARS-CoV PLP inhibition in yeast; S. cerevisiae expressing SARS-CoV PLpro, growth rescue; control for the full effect not named in the record; Potency, µM (doses to about 32.9 µM), inactives show at the highest dose activity, positive = growth rescue; 330,000 compounds, 0.19% hits; AID 485353; further: 0% is about no effect; nearly all actives have a fitted effect of over 55% in size; growth read by luminescence after 48 h
# Cruzain inh noDet = blocks cruzain activity in detergent-free assay; P25779; purified cruzain, Z-FR-AMC fluorescence, no detergent; Potency, µM, without a hit: max response, negative = inhibition, hits mostly inhibitors; 200,000 compounds, 2.3% hits; AID 1476; active means well fitted curve in the direction sought with a large enough effect; inconclusive means small, poorly fitted or top-dose-only effect, or another doubt; inactive means no such curve, though single readings can be large; an effect the other way counts as inactive or inconclusive;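 further: plate controls were enzyme without inhibitor for no effect and buffer without enzyme for full effect; nearly all actives have a fitted effect of over 40% in size; top concentration of the series not given in the record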
# Target sequence (P25779 123-467 limits assumed): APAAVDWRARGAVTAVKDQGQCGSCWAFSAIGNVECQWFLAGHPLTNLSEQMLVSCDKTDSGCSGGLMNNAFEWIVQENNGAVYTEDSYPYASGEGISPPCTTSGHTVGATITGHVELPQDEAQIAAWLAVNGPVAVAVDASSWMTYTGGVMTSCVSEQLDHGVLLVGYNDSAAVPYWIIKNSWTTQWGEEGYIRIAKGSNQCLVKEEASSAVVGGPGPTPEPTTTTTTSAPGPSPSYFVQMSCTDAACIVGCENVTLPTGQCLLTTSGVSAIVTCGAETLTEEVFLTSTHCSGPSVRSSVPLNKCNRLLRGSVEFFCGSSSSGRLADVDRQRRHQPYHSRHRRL
#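 Purified cruzain at 1.5 nM, pre-incubated 15 min with compound at room temperature in 100 mM sodium acetate pH 5.5, 5 mM DTT, 0.00005% Triton X-100. Reaction started with 2 uM Z-FR-AMC; AMC fluorescence increase over 60 s gives rate.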
# Cruzain Triton = cruzain (T. cruzi) inhibition with detergent; P25779; purified cruzain, Z-FR-AMC fluorescence, 0.01% Triton; Potency, µM, for the others: max response, negative = inhibition, hits mostly inhibitors; 200,000 compounds, 0.43% hits; AID 1478; active means well fitted curve in the direction sought with a large enough effect; inconclusive means small, poorly fitted or top-dose-only effect, or another doubt; inactive means no such curve, though single readings can be large; an effect the other way counts as inactive or inconclusive;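 further: plate controls were neutral wells for no effect and buffer without enzyme for full effect; nearly all actives have a fitted effect of over 40% in size; top concentration of the series not given in the record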
#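 Compounds were screened in titration against cruzain (1.5 nM) with 0.01% Triton X-100 to counter colloidal aggregation. Activity was the AMC fluorescence increase over 60 s after adding 2 uM Z-FR-AMC at pH 5.5.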
# MARV entry inh = blocks Marburg virus binding to or entry into cells. 300,000 compounds, 1.8% hits. AID 540276. Marburg virus pseudotyped entry inhibition, cell reporter; control for the full effect not named in the record; about a third of the inactives were read at about 46 µM. Potency, µM (top dose mostly 37.8 µM), inactives show at the top dose activity change, negative = inhibition, hits mostly inhibitors; active = well fitted inhibition curve with a large enough effect; inconclusive = small, poorly fitted or top-dose-only effect, or effect the other way; inactive = flat fitted curve, though single readings scatter; tested in HEK293 cells; about a fifth of its hits are not listed in these tables; further: on the % scale 0 is the no-effect control and ±100 the full control effect; luciferase read-out
# RE007 growth inh = less growth of the S. pombe RE007 Vpr strain; S. pombe RE007 Vpr strain, BacTiter-Glo ATP luminescence, 24 h; control for the full effect not named in the record; Potency, µM (series often up to 92.2 µM), for the others: at the top dose activity change, negative = less growth; 360,000 compounds, 0.21% hits; active = well fitted falling curve with a large enough effect; inconclusive = small, poorly fitted or top-dose-only effect; inactive = no such curve, though single readings can be large or run the other way;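 further: on the % scale 0 is the no-effect control and ±100 the full control effect; nearly all actives have a fitted effect of over 50% in size; the assay follows cell death caused by Vpr and the record does not say whether a fall means rescue or toxicity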
#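 Fission yeast strain RE007, carrying one chromosomally integrated HIV-1 vpr copy, was seeded at OD 0.01 in PMG+AL medium with 23 nL pinned compound. After 24 h at 30 °C and 99% humidity, viability was read by BacTiter-Glo luminescence.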
# An asterisk follows results filed as active; ? = inconclusive; · = no result given; & = joins results of further samples; [ ] = dose if it differs, or a comment. Unless noted, the call rests on the fitted dose curve; in most records, active means well fitted rising curve with a large enough effect; inconclusive means small, poorly fitted or top-dose-only effect; inactive means no such curve, though single readings can be large or run the other way. Potency means the concentration at half of the fitted maximal effect.
SMILES,LASV entry inh,NS1 inh,2A StopGo,SARS PLP yeast,Cruzain inh noDet,Cruzain Triton,MARV entry inh,RE007 growth inh
CC(=O)c1cccc(N(C(=O)CNC(=O)c2ccco2)C(C(=O)NCC2CCCO2)c2ccccc2)c1 (centres undefined),-10%,-8%,-10%,-3%,·,·,-12%[46.1 µM],-2%
Cc1cc(C)n2nc(C(=O)OCC(=O)NC(=O)c3ccccc3)nc2n1,-10%,·,-13%,4%,·,·,0%[46.1 µM],-7%
Cc1c(N2C(=O)c3ccc4c5c(ccc(c35)C2=O)CC4)c(=O)n(-c2ccccc2)n1C,?,?,-27%,3%,-15%,-7.1%,-16%,-11%
O=C(CSc1ncn[nH]1)Nc1nc(-c2ccccc2)ns1,?,?,-16%,4%,1%,-12%,-3%,-2%
COc1ccc(NC(=O)N(Cc2cc3cc(C)ccc3[nH]c2=O)CC2CCCO2)cc1 (centres undefined),·,?,-21%,-2%,·,·,·,13%
CCC(=O)c1ccc(OCC(O)CN2CC(C)OC(C)C2)cc1 (centres undefined),?,-1%,-18%,7%,-7%,3.5%,0%[46.1 µM],8%
COC(C[C@H](O)[C@H](C)[C@@H](O)COCc1ccccc1)OC,·,-1%,-6%,2%,·,·,·,-5%
CCn1ncc(C2=NOC(C(=O)Nc3cnn(C45CC6CC(CC(C6)C4)C5)c3)C2)c1C (centres undefined),?,8%,?,6%,?,-0.4%,-25%,-25%
CC1(NC(=O)NCc2ccccc2)CCS(=O)(=O)C1 (centres undefined),·,-1%,14%,1%,·,·,·,20%
CCc1ccccc1NC(=O)c1nnn(CC(=O)Nc2cccc(C)c2)c1N,14%,-7%,-7%,-4%,-6%,-3.8%,-11%,-11%
O=C1NC(=S)N/C1=C/c1cc([N+](=O)[O-])ccc1N1CCOCC1,13%,·,-5%,-1%,·,·,?,-8%
CCOC(=O)C1CCN(S(=O)(=O)c2ccc3oc(=O)ccc3c2)CC1,·,-6%,-19%,-5%,·,·,-15%[46.1 µM],-2%
Brc1ccc2nc(N3CCN(c4ccccc4)CC3)sc2c1,19%,·,53%[activator],-2%,·,·,2%&2%[46.1 µM],-7%
COc1ccccc1C(=O)N/C(=C\c1ccc(Br)cc1)C(=O)NCCCO,·,-6%,-6%,-1%,·,·,·,12%
Cc1oc2ccc(O)cc2c1C(=O)c1ccccc1,6%[46.1 µM],-35%,10%,-8%,·,·,-10%[46.1 µM],-23%
CCC1(C)Cc2ccccc2-c2nc3n(c(=O)c21)CC(C(=O)O)S3 (centres undefined),-5%,6%,-3%,-3%,-3%,0.9%,15%[46.1 µM],14%
C=CCOC(=O)C1=C(C)N=C2SCCC(=O)N2C1c1ccc(OC(=O)c2ccco2)cc1 (centres undefined),-23%,-47%,-12%,-3%,-16%,-9.6%,22%,-4%[3.69 µM]
CCc1ccccc1NS(=O)(=O)c1cc(Br)cc2c1N(C(=O)C1CC1)CC2,-4%[46.1 µM],·,-22%,·,?,-6.3%,?,·
NC(=O)NC(Cc1ccccc1)C(=O)N1CCN(S(=O)(=O)c2ccc(Cl)cc2)CC1 (centres undefined),7%,·,-6%,0%,·,·,-9%,-18%
COC(=O)c1cc(C(=O)Nc2ccc(C)cn2)cc([N+](=O)[O-])c1,-29%,0%,-17%,-7%,5%,7.0%,7%,-18%
CC1CCN(CC(=O)Nc2cccc([N+](=O)[O-])c2)CC1,8%,0%,4%,1%,-6%,1.9%,1%,6%
CC(=O)N(C1=C(N)C(=O)c2ccccc2C1=O)c1ccccc1,·,4%,-25%,0%,·,·,·,-21%
CC(=O)Nc1ccc2c(c1)C(=O)c1ccc(Cl)cc1-2,-1%,·,50%[activator],·,·,·,9%,30%
COCCCNC(=O)c1cn(CC(C)C)c(=O)c2c1c1ccccc1n2C,?,6%,-21%&-14%,5%,?,-0.7%&0.9%,?,54%
Cc1ccc(O)c(CP(=O)(c2ccccc2)c2ccccc2)c1,5%,7%,-18%,-5%,4%,1.8%,0%,10%
Cc1cc(Cl)ccc1OC(C)C(=O)Nc1ccc(S(=O)(=O)N2CCOCC2)cc1 (centres undefined),?,·,-16%,·,·,·,-16%[46.1 µM],-11%
COc1ccc(CCNC(=O)CCc2nnc(Cc3ccc4c(c3)OCO4)o2)c(OC)c1,23%,-5%,-5%,-1%,·,·,28%,33%
COc1cc(/C=C/C(=O)OCC(=O)NCCc2ccccc2)ccc1OC(F)F,·,15%,-10%,5%,·,·,·,21%
Cc1nc2c(C#N)c(C)[nH]n2c(=O)c1Cc1ccccc1,-9%,9%,·,10%,-3%,3.5%,7%,-15%
CC(=O)OC(C)CS(=O)(=O)c1ccccc1 (centres undefined),9%,·,2%,-1%,·,·,17%[46.1 µM],10%
CCOc1ccc2cc(C#N)c(SCC(=O)N3CCC(C)CC3)nc2c1,?,-12%,-12%,1%,-1%,-14%,?,-18%
O=c1c(Cc2ccccc2O)c(O)nc2n1CCCS2,-10%,9%,?,-18%,-11%,-0.3%,5%,15%
Cc1nc(SCC(=O)N2CC(=O)Nc3ccccc32)nc(C)c1C,-14%[46.1 µM],·,-7%,3%,·,·,-18%[46.1 µM],8%
CCn1cc(/C=C(\NC(=O)c2cc(OC)c(OC)c(OC)c2)C(=O)N2CCN(C)CC2)c2ccccc21,·,-10%,12%,0%,·,·,·,-5%
O=C(COc1ccc(S(=O)(=O)NCc2ccccc2)cc1Cl)N1CCOCC1,26%[14.3 µM],-11%,0%,1%,-8%,4.6%,2%,-11%
COc1cccc(COC(=O)c2ccc3c(=O)n4c(nc3c2)CCC4)c1OC,16%,·,-26%,-2%,·,·,18%,-6%
CCC(=O)N1CCc2cc(Br)cc(S(=O)(=O)NCCN3CCCCC3C)c21 (centres undefined),6%,-1%,27%,-1%,-12%,-0.8%,?,4%
CCN(CC)S(=O)(=O)c1ccc(NN=C2CCN(C(C)C)CC2)c([N+](=O)[O-])c1,·,-3%,0%,-1%,·,·,·,3%
N#Cc1cc(O)c(-n2nnc3ccccc32)cc1C#N,-3%,·,26%,-1%,·,·,2%,2%
CCN1C(=O)c2cccc3c(NC(=O)c4cccc(N5C(=O)CCC5=O)c4)ccc1c23,-1%,-14%,?,2%,-5%,-4.3%,?,15%
CCOC(=O)N1CCN(C(=O)c2ccc3c(=O)n(CCc4ccccc4)c(=S)[nH]c3c2)CC1,23%,-16%,-28%,-4%,9%,-2.1%,0%,13%
Cc1nc2c(C(=O)NCCc3ccccc3)cnn2c(C)c1Cc1c(F)cccc1Cl,-3%[46.1 µM],·,?,·,0%,2.6%,·,·
NC(=O)COC(=O)CN1C(=O)C2CCCCC2C1=O (centres undefined),1%,-3%,-10%,-2%,7%,-0.2%,?,5%
Cc1cc(C)cc(OCC(=O)NC(Cc2c[nH]c3ccccc23)C(=O)O)c1 (centres undefined),3%[46.1 µM],·,4%,·,0%,-10%,4%[46.1 µM],·
COc1ccc(/C(N)=N/OC(=O)CSc2ccccc2)cc1OC,11%,-12%,65%[activator],-16%,?,0.3%,24%[46.1 µM],-23%
O=C(c1cc(-c2ccc(Cl)cc2)n[nH]1)N1CCc2ccccc2C1,·,-4%,-14%,1%,·,·,·,-15%
CC1CCc2nc3ccccc3c(C(=O)OCC(=O)N(C)C3CCS(=O)(=O)C3)c2C1 (centres undefined),5%,·,-13%,3%,·,·,-11%[46.1 µM],-21%
Cc1ccc(C(=O)CSc2nc3ccccc3o2)cc1,35%,-2%,·,-5%,-16%,1.9%,14%,-24%
CCN(Cc1ccccc1)C(=O)C1CCN(c2ncnc3c2nc2n3CCCCC2)CC1,-5%[46.1 µM],-16%,?,7%,·,·,·,11%
O=C(Cc1ccccc1)NCC(=O)OCC(=O)c1cccc([N+](=O)[O-])c1,-12%,7%,0%,-19%,-22%,-27%,3%,10%
Cc1ccc(C)c(N2C(=O)N(Cc3c(F)cccc3Cl)c3ccccc3S2(=O)=O)c1,?,·,?,·,?,-0.6%,·,·
CCCN1CCC(NCC(C)c2ccccc2)CC1 (centres undefined),·,?,0%,7%,·,·,·,-4%
CCn1nc(C)c2c(-c3ccccc3)cc(=O)n(C(C)C(=O)NCCc3ccc(OC)c(OC)c3)c21 (centres undefined),-21%[46.1 µM],·,?,·,?,-5.8%,·,·
O=C(COc1ccccc1)Nc1c2c(nn1-c1ccccc1)CS(=O)(=O)C2,·,2%,-10%,-1%,·,·,·,-2%
CCOCCCNC(=O)/C(C#N)=C/c1cc(OC)c(O)c([N+](=O)[O-])c1,?,2%,-15%,0%,·,·,?,-24%
Cc1ccc(CNC(=O)c2c(-c3ccccc3Cl)noc2C)cc1,·,-3%,-22%,-3%,·,·,·,9%
Cc1nc(NC(=O)c2ccc3c(c2)OCO3)ccc1Br,-26%[46.1 µM],-3%,-10%,-1%,·,·,-1%[46.1 µM],-11%
CCOc1ccccc1C1NC(=O)NC(C)=C1C(=O)OC1CCCCC1 (centres undefined),?,0%,·,-3%,-1%,-6.0%,-28%,11%
COc1ccc(C)cc1S(=O)(=O)N(C)CC(=O)N1CCCCC1,1%,·,5%,·,·,·,?,-5%
Cc1ccc(S(=O)(=O)CCC(=O)Nc2ccc(OC(F)(F)F)cc2)cc1,6%[46.1 µM],·,-10%,·,2%,-9.2%,·,·

# The list continues:
SMILES,LASV entry inh,NS1 inh,2A StopGo,SARS PLP yeast,Cruzain inh noDet,Cruzain Triton,MARV entry inh,RE007 growth inh
CCc1ccc(NC(=O)CN(Cc2ccccc2)S(=O)(=O)c2ccc3nc(C)sc3c2)cc1,6%[46.1 µM],·,-23%,·,?,-5.4%,·,·
Cc1nc(-c2ccc(S(=O)(=O)Nc3ccc(OC(F)(F)F)cc3)cc2)co1,-3%[46.1 µM],·,-6%,·,-5%,-13%,·,·
CCOC(=O)C1CCN(C(=O)C(=O)c2cn(CC(=O)N3CCCCCC3)c3ccccc23)CC1,-10%[46.1 µM],18%,-2%,1%,·,·,-19%[46.1 µM],8%
Cc1nc2nc(N)nc(OCc3ccccc3)c2nc1C,-17%,·,-17%,·,·,·,-7%[46.1 µM],2%
